Source: PubChem
Menin-MLL FL inh: inhibitors of human menin-MLL interaction, wild-type MLL peptide. Fluorescence polarization, fluorescein-MLL peptide displacement from menin. FP activity change, % at 61.4 µM. 290,000 tested, under 10 active. AID 1766; inconclusive = falling polarisation curve, or a change in total fluorescence; inactive = total fluorescence flat and polarisation flat or rising; no compound was filed as active; the % refers to the polarisation; negative = inhibition;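 further: % of control where 0% means no effect; inhibitors lower the polarisation; unlabelled MLL peptide was the positive control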
gsp ag: gsp mutant agonism | Potency, µM (series often up to 76.9 µM), for the others: at the highest dose activation (cAMP increase), actives largely listed as activators | 340,000 compounds, 0.13% hits | gsp mutant cells, cAMP HTRF, 30 min; control for the full effect not named in the record; active = well fitted activation curve with a large enough effect; inconclusive = small, poorly fitted or top-dose-only effect, or another doubt; inactive = no such curve, though single readings can be large or run the other way; cell line not stated here;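 further: phosphodiesterase inhibitor Ro 20-1724 added with compounds to block cAMP breakdown; potency means the concentration at half of the fitted maximal effect; nearly all actives have a fitted effect of over 60% in size; about a fifth of the inactives were tested at one dose only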
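Cells in DMEM/10% FBS with G418 were pretreated with compounds in DMSO plus […] (300 uM stock) for 30 min at 37C. cAMP was measured by HTRF (cAMP-d2 plus anti-cAMP antibody-K) after 30 min at room temperature.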
gsp antag: antagonizes gsp, the McCune-Albright syndrome mutation. AID 624288. gsp-mutant cells, cAMP HTRF, 30 min; control for the full effect not named in the record. 340,000 compounds, 0.4% hits. Potency, µM (series often up to 76.9 µM), inactives show at the highest dose activity change, negative = inhibition, actives largely listed as inhibitors; active = falling curve of any shape with a large fitted effect; inconclusive = falling curve, mostly with a smaller effect; inactive = flat or rising curve; cell line not stated here;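 further: intracellular cAMP measured with PDE inhibitor Ro 20-1724 present during compound exposure; potency means the concentration at half of the fitted maximal effect; on the % scale 0 is the no-effect control and ±100 the full control effect; nearly all actives have a fitted effect of over 65% in size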
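Measurement of cellular cAMP by homogeneous time-resolved fluorescence following a 30 min compound exposure at 37C. The PDE inhibitor […] was present throughout; the assay buffer was DPBS with 0.05% BSA and 0.005% Tween 20.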
ClpP mod: qHTS Assay for Activators of ClpP; purified B. subtilis ClpP, FRET peptide cleavage, 20 min; 340,000 compounds, 1.9% hits; Potency, µM (top dose mostly 57.5 µM), for the others: at the top dose activity change, negative = active; active = well fitted falling curve with a large enough effect; inconclusive = small, poorly fitted or top-dose-only effect; inactive = no such curve, though single readings can be large or run the other way; further: potency means the concentration at half of the fitted maximal effect; the source files actives as falling curves though it sought activators and does not explain the sign; nearly all actives have a fitted effect of over 65% in size; many hits overshoot -100%
Target sequence (P80244 whole entry, looked up): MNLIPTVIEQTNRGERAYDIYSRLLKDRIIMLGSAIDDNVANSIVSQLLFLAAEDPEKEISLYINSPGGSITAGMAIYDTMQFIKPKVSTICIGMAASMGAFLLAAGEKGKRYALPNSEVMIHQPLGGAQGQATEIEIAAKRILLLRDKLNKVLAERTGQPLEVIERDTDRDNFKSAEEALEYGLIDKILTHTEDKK
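ClpP 10 microg/mL final, pH 8 Tris/KCl buffer with BSA, glycerol, Tween-20; compound pinned in; FRET-FV substrate; RT 20 min; Ex320/Em430; ΔFRET vs ADEP 5.8 microM, DMSO, no enzyme.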
TRPML1 agonist: human mucolipin-1 channel agonism. Q9GZU1. TRPML1-expressing cells, Ca2+ dye fluorescence, FDSS; host cell line not named in the record; reference of the full effect not given here. activation, % (no concentration beside the values). 410,000 compounds, 0.12% hits; in the data active = activation above about 50%; inconclusive = about 30% to 50%; inactive = below about 30%; further: 0% is about no effect; the text of the record puts the active cut at 80%
Target sequence (Q9GZU1 whole entry, looked up): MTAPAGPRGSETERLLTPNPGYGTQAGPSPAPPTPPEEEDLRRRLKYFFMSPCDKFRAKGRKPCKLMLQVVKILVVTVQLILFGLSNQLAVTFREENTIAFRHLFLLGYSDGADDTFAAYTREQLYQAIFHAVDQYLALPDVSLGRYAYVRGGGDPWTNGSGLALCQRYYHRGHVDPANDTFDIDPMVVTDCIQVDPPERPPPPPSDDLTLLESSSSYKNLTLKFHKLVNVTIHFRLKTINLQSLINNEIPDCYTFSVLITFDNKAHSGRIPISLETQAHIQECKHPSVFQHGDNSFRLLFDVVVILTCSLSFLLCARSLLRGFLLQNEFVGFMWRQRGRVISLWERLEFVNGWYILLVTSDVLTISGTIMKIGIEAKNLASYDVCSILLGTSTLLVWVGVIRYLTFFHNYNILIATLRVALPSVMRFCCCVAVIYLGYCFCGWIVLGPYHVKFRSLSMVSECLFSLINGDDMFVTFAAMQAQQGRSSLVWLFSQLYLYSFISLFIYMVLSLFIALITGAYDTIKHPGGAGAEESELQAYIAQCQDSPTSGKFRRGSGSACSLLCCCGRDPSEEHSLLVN
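Kinetic FDSS Ca2+ read in Tet-induced TRPML1-DL cells (ABD Ca8 dye plus quencher, 45-90 min RT loading): baseline, then compound, then 110 s agonist window; EC80 agonist 54-4 at 4uM final added afterwards for a 110 s antagonist window.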
TRPML1 inh: blocks the human TRPML1 channel. TRPML1-inducible cells, Ca2+ dye fluorescence, FDSS; hits give low values; inhibition of EC80 agonist-evoked calcium signal. activity change, negative = inhibition, % (concentration not given with the values). 390,000 compounds, 0.02% hits. AID 624415; in the data active means activity change below about -50%; inconclusive means about -30% to -50%; inactive means above about -30%;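 further: stimulus is agonist 54-4 at its EC80 concentration; on the % scale 0 is the no-effect control and ±100 the full control effect; the text of the record puts the active cut at -80%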
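TRPML1-DL cells, Tet-induced overnight (~16 h, 37 °C) at 1,500 cells/well, were loaded with Ca8 no-wash dye plus quencher for 45-90 min at room temperature. Compounds were pinned during FDSS kinetic reading; agonist 54-4 at EC80 (4 uM final) then added.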
An asterisk follows results filed as active; ? = inconclusive; nt = no result given; [ ] = remark or other dose.

Molecule	Menin-MLL FL inh	gsp ag	gsp antag	ClpP mod	TRPML1 agonist	TRPML1 inh
Cc1ccc(S(=O)(=O)N2C[C@H]3C(=O)C[C@@H](c4ccccc4)N(S(=O)(=O)c4ccc(C)cc4)[C@H]3C[C@H]2c2ccc(Cl)cc2)cc1	nt	22%	nt	-1.6%	18	-13
O=C(NCC(c1ccccc1)N1CCCC1)C1CCN(C(=O)Nc2ccccc2)CC1 (stereo not drawn)	nt	17%[15.4 µM]	1%	nt	0.3	-2
CCOC(=O)c1c(C)[nH]c(C)c1S(=O)(=O)N(C)CC(=O)N1CCN(c2cccc(C)c2C)CC1	nt	nt	nt	-1.3%	-0.9	9
O=C(O)c1ccccc1CSc1ncn[nH]1	0.1	-22%	-1%	-0.5%	0.6	10
Cc1ccc(Oc2nnc(-c3ccc(C)cc3)c3ccccc23)cc1	-0.1	5%	-24%	0.8%	-0.9	21
O=C(NCC1CCCO1)c1ccc(N2C(=O)C3CCCCC3C2=O)cc1 (stereo not drawn)	-1.4	-15%	-17%	nt	0.5	28
CC(=O)c1c(C)[nH]c(C(=O)OCC(=O)c2c(N)n(CC(C)C)c(=O)n(C)c2=O)c1C	nt	-4%	?	-2.1%	-1.5	-1
Cc1cccc(NC(=O)c2ccc(C(=O)Nc3cccc(C)c3)nc2)c1	1.9	15%	-7%	-3.2%	0.4	-8
O=C(Oc1ccc(/C=N/Nc2nc(N3CCCCC3)nc(N3CCCCC3)n2)cc1)c1ccco1	-1.1	-57%[inhibitor]	3%	-0.5%	1.4	8
COC(=O)c1ccc(C)c(NC(=O)C2COc3ccccc3O2)c1 (stereo not drawn)	2.3	-8%	-9%	0.9%	-0.6	-6
O=C1CC(N(CCc2ccccc2)C(=S)Nc2cc(Cl)ccc2Cl)C(=O)N1c1c(Cl)cccc1Cl (stereo not drawn)	1.0	-3%	-12%	0.2%	-0.5	10
COc1ccccc1NC(=O)/C=C1\SCC(=O)N1C	2.1	?	-9%	nt	0.3	33
O=c1[nH]c2ccccc2nc1C(F)(F)C(F)F	1.3	-1%	13%	?	0.6	-8
O=C(CSc1nnc(NC(=O)c2ccc(S(=O)(=O)N3CCOCC3)cc2)s1)Nc1ccccc1C(F)(F)F	8.4	-11%	-4%	-3.4%	-0.5	-12
O=C(CCCn1c(=O)c2cccn2c2cccnc21)NCc1cccc(Br)c1	3.1	-2%	-6%	-14%	1.0	0
CCOC(=O)c1c(C)[nH]c(C)c1C(=O)COC(=O)c1ccc(Cl)c(S(N)(=O)=O)c1	4.3	-1%	3%	0.7%	0.0	-3
CC(/C=C\c1ccccc1)=C/C(=O)O	-2.2	0%[15.4 µM]	1%	-6.2%	-0.2	34
Cc1ccccc1Nc1ncnc2[nH]ncc12	nt	8%[15.4 µM]	5%	1.9%	-0.5	6
CCCN1CCN(CCCNC(=O)c2ccc(NC(=O)C3=C(C)OCCS3)cc2)CC1	nt	?	8%	-1.2%	0.0	24
CN(C)C(=S)N=c1ssc(=S)n1Cc1ccco1	nt	1%	-7%	-4.2%	1.1	-11
CCOc1ccc(NC(=O)CSc2ccc(-c3ccccn3)nn2)cc1	2.9	-10%	3%	0.7%	-0.5	7
COc1cccc(C(=O)NCC(c2ccc3c(c2)OCO3)N2CCOCC2)c1 (stereo not drawn)	nt	nt	nt	-0.2%	0.0	22
CN(C)C(=S)c1ccc(N(C)C)cc1	-3.1	9%	5%	0.9%	-0.8	54
Cc1cc(C)c2cccc(N)c2n1	-0.3	26%	4%	nt	-0.2	35
CCCN(C(=O)CSc1nc2c(cnn2-c2ccccc2)c(=O)[nH]1)C1CCS(=O)(=O)C1 (stereo not drawn)	-10	7%[15.4 µM]	9%	-0.7%	-0.6	8

(list continues)
Molecule	Menin-MLL FL inh	gsp ag	gsp antag	ClpP mod	TRPML1 agonist	TRPML1 inh
CCOc1ccccc1C(=O)NC(C)c1ccc2c(c1)OCO2 (stereo not drawn)	1.7	?	-4%	-1.0%	2.2	28
CC1=NN(C(=O)Cc2ccc([N+](=O)[O-])cc2)C(O)(c2ccccc2)C1 (stereo not drawn)	-2.3	-29%	-9%	1.6%	1.9	9
COc1ccc(-c2nc3c4cnn(-c5ccccc5F)c4ncn3n2)cc1	nt	nt	nt	-25%	0.7	10
CCCCn1c(/C=C/c2ccco2)nc2ccccc21	?	7%	11%	-30%	1.9	-12
O=C(COC(=O)C1CCN(S(=O)(=O)c2ccc(Cl)c(C(F)(F)F)c2)CC1)NCC1CCCO1 (stereo not drawn)	nt	-40%[inhibitor]	nt	-1.4%	-0.6	-1
CC1=C(C(=O)NCc2ccc(C)cc2)C2(CCCCC2)OC1=O	nt	nt	nt	-1.1%	0.9	1
CCN(CC)CCNC(=O)c1cn(-c2ccccc2)nc1-c1cccs1	-1.9	-11%	20%	-5.2%	-0.3	12
COc1cccc(N2CCN(c3nc(C)c(C)c(=O)[nH]3)CC2)c1	0.1	-7%[15.4 µM]	-12%	-2.9%	1.5	18
COc1cc(/C=C2\SC(=S)N(N(C)c3ccccc3)C2=O)ccc1O	?	8%	8%	0.3%	4.3	-5
CC(=O)Nc1ccc(N2C(=O)CSC2c2cccc(Br)c2)cc1 (stereo not drawn)	-11	?	8%	nt	0.0	-1
Cc1ccc(NCc2ccccc2F)cc1	2.7	0%	5%	-1.5%	2.2	-10
FC(F)(F)c1cccc(Cc2noc(CN3CCSCC3)n2)c1	0.0	-8%	-6%	nt	0.4	14
COc1ccccc1CNC(=O)C(C)c1ccc([N+](=O)[O-])cc1 (stereo not drawn)	0.4	0%	3%	nt	-0.2	-7
CCC(=O)N1CCc2cc(Br)cc(S(=O)(=O)CCC(=O)Nc3cccc(C)c3C)c21	nt	nt	nt	0.9%	-0.8	-5
CCc1nc(NCC2CCCO2)c(C#N)c2c1COC(C)(C)C2 (stereo not drawn)	1.9	-9%	-12%	13%	-0.6	-8
CC1=C(C(=O)OCC2CCCO2)C(c2coc3ccc(Cl)cc3c2=O)C2=C(CCCC2=O)N1 (stereo not drawn)	8.4	34%[15.4 µM]	nt	nt	0.0	-6
CN(C(=O)c1cc2n(n1)C(C(F)(F)F)CC(c1ccco1)N2)c1ccc(OC(F)(F)F)cc1 (stereo not drawn)	18	14%	0%	0.7%	2.1	-6
O=c1nccc(N/N=C/c2ccccc2O)[nH]1	1.4	-1%[15.4 µM]	-7%	nt	0.3	-7
CCC(c1nnnn1CCOC)N(Cc1cc2c(C)cc(C)cc2[nH]c1=O)CC1CCCO1 (stereo not drawn)	3.9	-15%	-4%	28µM*	0.3	-4
O=C(NCCN1CCOCC1)c1ccc(N2CCCC2)c([N+](=O)[O-])c1	0.2	-6%[15.4 µM]	12%	nt	-0.4	10
Cc1ccc(C)c(N2CCN(C(=O)c3cn(C)c4ccc(S(=O)(=O)N(C)C)cc4c3=O)CC2)c1	-0.3	-44%[inhibitor]	-10%	0.1%	0.1	13
CCC1CCCCN1C(=O)Cn1c(=O)n(CCCCCC(=O)NCc2ccc(F)cc2)c(=O)c2sccc21 (stereo not drawn)	nt	nt	nt	-0.6%	3.8	-16
CC(=O)Nc1ccc(/C=C(\C#N)C(=O)NC2CCCCC2)cc1	5.2	-25%[15.4 µM]	4%	nt	1.1	2
CCOc1ccccc1NC(=O)N1CCC(NC(=O)c2ccccc2C)CC1	2.3	-2%	-7%	-0.9%	-0.8	-8
Cc1cc(C)n2nc(SCC(=O)N3CCc4ccccc43)nc2n1	5.9	1%	-9%	0.5%	1.6	-16

The final two compounds of the section above come first, to join the parts:
Molecule	Menin-MLL FL inh	gsp ag	gsp antag	ClpP mod	TRPML1 agonist	TRPML1 inh
CCOc1ccccc1NC(=O)N1CCC(NC(=O)c2ccccc2C)CC1	2.3	-2%	-7%	-0.9%	-0.8	-8
Cc1cc(C)n2nc(SCC(=O)N3CCc4ccccc43)nc2n1	5.9	1%	-9%	0.5%	1.6	-16
O=S(=O)(Nc1ncccn1)c1ccc(Cl)cc1	-2.6	-27%	0%	0.9%	1.3	21
O=C(O)CCCNS(=O)(=O)c1ccccc1	-2.3	-21%	12%	2.7%	4.9	32
CCOC(=O)Nc1ccc2c(c1)N(C(=O)CCCl)c1ccccc1[S@]2=O	-0.8	-12%	-15%	0.0%	0.1	-3
O=C(CSc1ncccn1)NC(=O)NC1CCCC1	nt	3%	nt	0.6%	-0.7	2
CNC(=O)c1[nH]cnc1C(=O)N[C@@H](CCCCNC(=O)OC(C)(C)C)C(=O)OC(C)(C)C	-0.9	?	8%	0.5%	-0.9	2
CON1C(=O)C(=O)N(OC)C(C)(C)C1C (stereo not drawn)	-0.2	-47%[inhibitor]	5%	1.0%	-0.3	-3
C#CCNC(=O)C1=C[C@H](C(C)(C)C)C[C@H](OCc2ccc(CO)cc2)O1	0.6	?	-9%	-1.9%	-1.1	19
Cc1cc(C)c2nc(N(Cc3cccnc3)C(=O)CCS(=O)(=O)c3ccccc3)sc2c1	nt	nt	nt	-0.9%	1.0	-19
O=C(O)CCCC(=O)Nc1ccc(Br)cc1C(=O)O	2.8	0%	-4%	-6.0%	-0.2	9
O=C(Nc1ccc2oc(-c3cccnc3)nc2c1)c1ccc(-c2cccc(OC(F)(F)F)c2)o1	nt	nt	nt	5.2%	1.6	-3
COC1=CCC2([N+](=O)[O-])CN(CC(=O)O)CC1([N+](=O)[O-])C2 (stereo not drawn)	4.2	-5%	16%	-5.6%	1.2	3
Nc1ccc(C(=O)n2c3ccccc3c3ccccc32)cc1	1.6	10%	5%	-0.8%	0.7	-7
CN(/N=C/Cc1nnnn1-c1ccc(Cl)cc1)c1ccccc1	-4.2	25%	0%	-0.2%	1.0	0
CCCn1nc(NC(=O)C2CCCO2)c2cc3ccc(C)cc3nc21 (stereo not drawn)	-2.2	?	-16%	nt	0.7	-2
CC(=O)Nc1ccc(S(=O)(=O)N2CCN(Cc3ccccn3)CC2)cc1	-1.7	-22%	0%	-0.2%	0.3	-1
CN1CCN(C2CCCCC2NS(=O)(=O)c2ccccc2)CC1 (stereo not drawn)	nt	2%	9%	-0.8%	0.4	13
Cn1cc2cc(NC(N)=S)ccc2n1	-0.4	-43%[inhibitor]	11%	20%	0.1	32
O=C(CCCCn1c(=O)c2ccccc2n(Cc2ccc(F)cc2Cl)c1=O)NCc1ccco1	-0.7	-31%[inhibitor]	-6%	-13%	5.6	-5
COCCCNC(=O)c1ccc(Cn2c(=O)c3ccccc3n(Cc3ccccc3C#N)c2=O)cc1	3.9	21%	-9%	-14%	3.7	-14
CCOC(=O)c1sc(=S)n(CC)c1NC(=O)c1ccccc1C	6.0	-9%	-12%	-0.7%	-1.3	-7
